# Rce1 inh = blocks yeast Ras-converting enzyme; hit rate 0.27% among 290,000; calls only; AID 2563; yeast membranes, quenched prenylated peptide cleavage fluorescence; Q03530;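 active means fall in fluorescence gain of 50% or more versus controls, with final raw signal at or below 3038400; inconclusive means same 50% fall but final raw signal above 3038400; inactive means fall in fluorescence gain under 50%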;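 further: plate controls were neutral control wells for no effect and wells lacking membranes for full effect; tested at 10 µM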
# eIF4H FP inh = inhibitors of RNA binding by human eIF4H; Q15056; eIF4H fluorescence polarization binding assay; inhibition, % at 35 µM; hit rate 0.94% among 290,000;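 active means 50% or more with normal probe brightness, or confirmed in later tests; inconclusive means above 50% with abnormal brightness, or retests that disagree; inactive means below 50% or failed in later tests; about a fifth of its hits are not listed in these tables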;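 further: calls also rest on retests at 20 µM and on dose response follow-up; 0% = protein and probe with vehicle and 100% = probe without protein; strong numbers were not always called active; many hits fall short of the cut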
# CSC inhib = cancer stem cell inhibition. cancer stem cell-like cells viability, luminescence. inhibition, % at 7.5 µM. hit rate 1.1% among 300,000. AID 2717;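 active means mean at 75% or more and at least half the replicates too; inconclusive means mean and replicates disagree; tested in HMLE shEcad cells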;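 further: 0% = median of negative and 100% = median of positive control wells; the first replicate is given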
# UUG fidelity = alters start codon recognition fidelity in yeast; S. cerevisiae UUG-firefly luciferase reporter, luminescence/redox ratio; activity score, % at 18.7 µM; hit rate 0.13% among 350,000; AID 602363;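 active means replicate mean at a twofold rise or more, about +100% in these data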;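 further: firefly luciferase made from a UUG start codon reports start codon fidelity; reporter light over untreated wells divided by growth signal over untreated wells; some hits fall short of that in this replicate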
# MT1-MMP act inh = inhibitors of human MT1-MMP activation; GFP/RFP ratio change, % at 20 µM; HT1080 RFP-PRO-GFP cells, GFP/RFP ratio fluorescence, overnight; percent of plate control window, DMSO zero; P50281; hit rate 0.061% among 360,000;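 active means GFP/RFP ratio change of at least 30% with cell ATP level not reduced by more than half and red fluorescence within 50% of control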; further: strong numbers were not always called active
#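 Test system: HT1080 cells expressing an RFP-PRO-GFP fluorescent reporter construct / Compound dosing: single-point 20 µM compound, 1% DMSO / Schedule: cells overnight before dosing, compound overnight, 37 °C, 5% CO2 / Evaluation: GFP/RFP fluorescence ratio / Control set: DMSO and RFP-L50D-GFP cell wells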
# HIV Env fusion = HIV envelope-mediated fusion inhibition; HeLa-JRFL Env/CEM21 cell fusion, luciferase; inhibition, % at 12.3 µM; hit rate 1.1% among 360,000;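 active means mean replicate inhibition score of at least 50 and every replicate individually at or above 50; inconclusive means only one of the two criteria met; inactive means mean below 50 and not all replicates reaching 50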;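 further: 0% = plate neutral controls and 100% = maraviroc near 300 nM; one replicate is shown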
# PABP FP inh = PABP-poly(A) binding inhibition | P11940 | PABP-poly(A) RNA binding, fluorescence polarization | inhibition, % at 35 µM | hit rate 1% among 290,000;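 active means 50% or more with normal probe brightness, or confirmed in later tests; inconclusive means above 50% with abnormal brightness, or retests that disagree; inactive means below 50% or failed in later tests; about a fifth of its hits are not listed in these tables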;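 further: calls also rest on retests at 20 µM and on dose response follow-up; controls were probe without protein and protein plus probe with vehicle; some compounds called inactive have numbers as strong as hits; many hits fall short of the cut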
# Target sequence (P11940 whole entry, looked up): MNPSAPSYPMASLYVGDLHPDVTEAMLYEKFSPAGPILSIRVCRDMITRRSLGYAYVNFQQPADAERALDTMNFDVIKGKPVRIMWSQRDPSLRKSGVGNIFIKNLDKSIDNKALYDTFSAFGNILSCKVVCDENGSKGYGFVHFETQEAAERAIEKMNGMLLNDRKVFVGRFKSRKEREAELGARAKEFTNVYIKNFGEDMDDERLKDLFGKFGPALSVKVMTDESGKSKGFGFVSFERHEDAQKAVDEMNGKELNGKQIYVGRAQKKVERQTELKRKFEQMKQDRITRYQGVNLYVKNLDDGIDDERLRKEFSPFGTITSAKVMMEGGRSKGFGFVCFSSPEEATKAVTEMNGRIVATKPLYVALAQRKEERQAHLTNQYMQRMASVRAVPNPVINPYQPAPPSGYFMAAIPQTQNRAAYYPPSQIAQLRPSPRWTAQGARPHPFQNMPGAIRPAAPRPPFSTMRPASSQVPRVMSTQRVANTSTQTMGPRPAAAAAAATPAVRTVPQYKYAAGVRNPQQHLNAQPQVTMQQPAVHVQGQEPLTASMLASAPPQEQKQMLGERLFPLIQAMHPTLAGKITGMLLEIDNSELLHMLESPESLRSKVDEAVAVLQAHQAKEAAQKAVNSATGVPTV
# eIF4H FP inh retest = second read-out of eIF4H FP inh, no call of its own (marks repeat the call); inhibition, %; compound at 20 µM; confirmation average;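 mean of two retest wells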
# PABP FP inh retest = further read-out of PABP FP inh, marked with its call; inhibition, %; compound at 20 µM; confirmation repeats;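 mean of two retest wells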
# MT1-MMP act inh RFP = recorded beside MT1-MMP act inh, whose call it bears; RFP signal change, %; measured here: RFP expression control read;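 0 = vehicle wells; hits needed this value within 50% of zero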
# * marks the source's active call; other numbers are inactive results; i = inactive; u = inconclusive; x = not tested or not shown; & = joins results of further samples.
SMILES,Rce1 inh,eIF4H FP inh,CSC inhib,UUG fidelity,MT1-MMP act inh,MT1-MMP act inh RFP,HIV Env fusion,PABP FP inh,others
O=C(OCC(=O)N1CCc2ccccc2C1)c1ccc(OC(F)F)cc1,x,x,x,-3,-3,0,5,x,
COc1cc(NC(=O)C2CCCCC2)c(OC)cc1NC(=O)CCC(=O)NCc1ccco1,x,-2,-17,-8,1,1,4,-8,
COc1ccc(NC(=O)c2nc(S(=O)(=O)Cc3cccc(C)c3)ncc2Cl)c(OC)c1,i,x,28,4,0,2,27,x,
CSc1c(C#N)c(N)nc2sc(C(=O)c3ccc(Cl)c(Cl)c3)c(N)c12,i,u,16,x,x,x,x,u,
COc1ccc(CNC(=S)Nc2ccc3nc(N4CCOCC4)cc(C)c3c2)cc1,i,3,-1,x,6,-1,-7,12,
Cc1ccccc1NC(=O)CN1C(=O)NC2(CCc3ccccc32)C1=O (stereo not given),x,x,-16,-16,0,0,x,x,
Cc1nc(SC(C)C(=O)c2c(N)n(C)c(=O)n(C)c2=O)c2c(C)c(C)sc2n1 (stereo not given),i,x,-2,x,3,-5,16,x,
CCC(OC(=O)c1nsc(Cl)c1Cl)C(=O)NCc1cccs1 (stereo not given),i,-1,-7,5,1,1,-93,17,
CCOC(=O)c1ccccc1N=Cc1c(O)c2ccccc2oc1=O,i,-1,-2,-3,0,1,16,1,
Cc1ccc(NC(=O)CCSc2nnnn2-c2ccc3c(c2)OCO3)cc1C,i,-8,-7,1,-5,-8,x,5,
O=C(c1ccc(Cl)cc1)N1CCC(O)(CSc2ccc(Cl)cc2)CC1,i,-4,-2,26,2,-9,x,-9,
O=C(NCC(=O)N1CCN(c2ccccc2O)CC1)c1ccccc1,i,4,-10,-5,0,2,0,4,
CC(C)(C)NC(=S)NNC(=O)c1ccncc1,i,-2,-7,x,3,4,x,-4,
CCOc1ccc(NS(=O)(=O)c2ccc(C(=O)NCc3ccncc3)cc2)cc1,i,x,x,x,-4,-17,-14,x,
OCCCCNCc1ccc(OCc2ccccc2)cc1,i,-7,8,-8,2,3,2,-4,
O=C(O)c1csc(-c2ccc(Cl)cc2)n1,i,-6,12,x,1,3,13,-6,
CC(Oc1ccc(Cl)cc1Cl)C(=O)NNC(=O)C(=O)N1CCCC1 (stereo not given),i,-6,x,4,9,9,8,4,
S=C(Nc1ccccc1Cl)NC1CC2CCCC(C1)N2C1CC1 (stereo not given),i,3,x,x,-2,0,-4,-7,
CC(C)OC(=O)CN1CCN(c2ccc(Cl)cc2)CC1,i,-3,0,-2,-1,0,23,23,
CCOC(=O)N1CCN(C(=O)CSCc2ccc(Cl)cc2)CC1,i,6,18,-2,-1,-10,x,35,

# Among those listed so far, 3 contain an aryl methoxy group:
SMILES,Rce1 inh,eIF4H FP inh,CSC inhib,UUG fidelity,MT1-MMP act inh,MT1-MMP act inh RFP,HIV Env fusion,PABP FP inh,others
COc1cc(NC(=O)C2CCCCC2)c(OC)cc1NC(=O)CCC(=O)NCc1ccco1,x,-2,-17,-8,1,1,4,-8,
COc1ccc(NC(=O)c2nc(S(=O)(=O)Cc3cccc(C)c3)ncc2Cl)c(OC)c1,i,x,28,4,0,2,27,x,
COc1ccc(CNC(=S)Nc2ccc3nc(N4CCOCC4)cc(C)c3c2)cc1,i,3,-1,x,6,-1,-7,12,

# More compounds
SMILES,Rce1 inh,eIF4H FP inh,CSC inhib,UUG fidelity,MT1-MMP act inh,MT1-MMP act inh RFP,HIV Env fusion,PABP FP inh,others
Cc1ccc(OCC(=O)OCC(=O)N2c3ccccc3CC2C)cc1C (stereo not given),x,x,-7,-7,1,4,x,x,
CC(C)=Cc1c(O)nc2ccccn2c1=O,x,0,2,x,-2,3,-11,-4,
c1ccc(-c2cc(-c3ccccc3)n3ncnc3n2)cc1,i,-4,-10,x,-6,-2,11,-1,
O=C(CCc1ccc(S(=O)(=O)N2CCOCC2)cc1)NCCc1ccccn1,i,3,6,-7,-2,4,-47,12,
CCC(CC)C(=O)NCc1cccnc1,i,7,-12,x,3,0,-7,8,
CCOc1ccc(-n2c(SCC(=O)Nc3ccccc3CC)nc3n[nH]c(C)c3c2=N)cc1,i,-6,2,x,x,x,3,-10,
CCC(=O)c1ccc(OCC(=O)OCC(=O)Nc2ccc3c(c2)OCCO3)cc1,x,x,-8,0,-1,3,x,x,
Cc1ccc(CCC(=O)Nc2ccc(Br)cc2)o1,i,-2,37,-25,2,1,-33,0,
O=C(COc1ccc([N+](=O)[O-])cc1)Nc1ccc2c(c1)nc1n2CCOC1,i,-14,-10,-21,0,-3,-3,-2,
O=C(NC(=S)Nc1ccccc1Cl)c1csnn1,i,1,-10,-22,1,3,x,6,
Cc1ccc(CNC(=S)NC2CCC(C(C)(C)C)CC2)cc1 (stereo not given),i,-11,21,-31,-4,-6,1,-20,
C[C@H](CO)N1C[C@H](C)[C@@H](CN(C)C)Oc2c(NS(=O)(=O)c3cn(C)cn3)cccc2C1=O,x,x,-4,-3&-7,1,8,x,x,
CCC(C)c1ccccc1N1CC(C(=O)N2CCN(S(=O)(=O)c3ccccc3Br)CC2)CC1=O (stereo not given),i,x,-15,12,2,-2,0,x,
COc1cccc(NC(=O)CN2CCSc3ccccc32)c1,i,3,23,x,-1,1,5,-4,
COc1cccc(OC)c1C(=O)OCC(=O)Nc1ccc(OC(F)(F)F)cc1,i,0,2,-3,-2,-3,-4,-2,
CCc1cccc(CC)c1NC(=O)CO/N=C(\C)c1cccs1,i,0,-8,x,-35,-27,x,-7,
CSc1ccccc1NC(=O)c1onc(C)c1Cl,i,-1,5,-27,0,4,-36,7,
COc1ccc(Br)cc1C(=O)NCc1cccnc1,i,-12,12,-12,4,1,-7,10,
O=C(/C=C/c1ccco1)NC(=S)Nc1ccc(Cl)cn1,i,71,-6,-34,-1,6,x,37*,eIF4H FP inh retest=16;PABP FP inh retest=58*
CC(C)CC(NC(=O)C(CC(C)C)NC(=O)OC(C)(C)C)C(N)=O (stereo not given),i,3,0,x,-4,4,x,3,
CC1C(=O)N2CCCc3cc(NC(=O)C4CCCCC4)cc1c32 (stereo not given),i,x,0,5,2,1,-14,x,
CC(=O)N1CCN(CC(=O)Nc2c(Cl)cc(Cl)cc2Cl)CC1,i,-1,-13,-12,-3,-1,x,-15,
CCC(CC)C(=O)Nc1cccc(C(=O)NCc2ccco2)c1,i,47,8,-24,-4,-5,x,7,
O=C(CN1CCN(c2ccccc2)CC1)N1CCN(c2ccccc2)CC1,i,-5,1,-12,4,2,x,-9,
CCCC(=O)N1CCC(Cc2ccccc2)CC1,i,-5,-2,5,1,2,-10,-8,
COc1ccccc1C(c1nnnn1C(C)(C)C)N1CCN(C(=O)c2ccco2)CC1 (stereo not given),i,-4,0,-8,-3,5,x,6,
CCOc1ccccc1C(=O)NC(C)c1ccc(-n2ccnc2)cc1 (stereo not given),i,-4,-2,-4,4,4,14,-6,
CN1C(C)(C)CC(NC(=O)c2ccco2)CC1(C)C,i,12,9,-2,-2,1,-16,6,
CN(C)CC(CCC(CN(C)C)C(O)(c1ccccc1)c1ccccc1)C(O)(c1ccccc1)c1ccccc1 (stereo not given),i,3,x,x,x,x,-45,3,
Cc1ccc(CC(=O)NCCS(=O)c2ccc(C)cc2)cc1 (stereo not given),i,3,-16,-7,-2,2,-79,17,
Cc1ccc(/C=C/C(=O)N(Cc2cccs2)C2CCS(=O)(=O)C2)cc1 (stereo not given),i,-4,-5,4,6,-1,11,-8,
CCOC(=O)C1CCN(C(=O)C(=O)Nc2ccc3nc4n(c(=O)c3c2)CCCCC4)CC1,i,-5,0,-13,0,6,38,-10,
Cc1ccccc1-c1nc(CS(=O)CC(=O)NCCCN(C)c2ccccc2)c(C)o1 (stereo not given),i,5,5,20,-2,-3,15,-4,
Cc1ccc(NC(=O)c2cccc(OCc3c(C)noc3C)c2)cc1,i,-12,-9,1,3,-3,-14,-2,
O=[N+]([O-])c1cc(/C=N/N2CCOCC2)cs1,i,-15,-7,-9,-1,-1,2,0,
COc1ccc(NC(=O)c2ccc(NC(=O)c3ccncc3)cc2)cc1,i,-8,-11,0,-1,2,12,2,
Cc1ncc(N=Nc2ccccc2)c(-c2ccccc2)n1,i,4,x,-8,1,4,x,-12,
CN(C)C(=S)NC(=NCc1ccc([N+](=O)[O-])cc1)c1ccccc1,i,-16,20,-13,1,4,6,2,
CC1=CC(c2ccccc2)=NS(=O)(=O)N1,x,x,x,-11,2,6,2,x,
O=C(Nc1nc(=S)ss1)c1ccc(Cl)cc1Cl,x,-6,x,-20,3,1,-18,-4,
COc1ccc(NC(=O)CSCC(=O)N(C)CC(=O)Nc2cccc3ccccc23)cc1,i,x,-10,2,3,2,x,x,
O=C(CCC1CCCC1)N=C1SC2CS(=O)(=O)CC2N1c1ccccc1F (stereo not given),i,5,20,-8,0,2,4,-5,
CC(=O)Nc1c(O)nc(SCC(=O)Nc2nnc(CC(C)C)s2)[nH]c1=O,x,4,4,-19,2,7,-11,-5,
O=C(Nc1ccc(Cl)cn1)C1CCN(c2ncnc3c2nc2n3CCCCC2)CC1,i,-2,7,-5,8,-28,2,5,
C/C(=N\NS(=O)(=O)c1ccc([N+](=O)[O-])cc1)c1c[nH]c2ccccc12,i,0,-6,9,1,4,-1,-2,
CC(C)C[C@@H](CSc1ccccc1)N1CCN(CCc2ccccc2)CCC1=O,i,-8,22,-42,-3,-3,-31,10,
Cc1ccc2c(c1)N(CC(=O)NC1CCC(C)CC1)C(=O)CO2 (stereo not given),i,-8,-14,-16,10,3,2,-8,
O=C(CN1CCC(C(=O)c2cccc(Cl)c2)CC1)Nc1ccc(C(=O)O)cc1,i,-2,-8,x,2,-1,-19,-1,
CCOc1ccc(NC(=O)c2ccc(CSc3nnc(C)s3)cc2)cc1,i,1,-3,x,-2,-5,9,6,
O=C(CSc1nc(-c2ccccc2)cc(C(F)(F)F)n1)N1CCOCC1,i,-6,-14,-19,-6,-3,16,-6,
CCC1CCCCN1CCn1c(=S)[nH]c2cc(OC)c(OC)cc2c1=O (stereo not given),i,-4,-8,-26,6,3,-15,-6,
O=C(Nc1cc2ccccc2oc1=O)c1ccccc1,i,5,-4,x,-3,0,-3,4,
CCOC(=O)C(C)Oc1cccc2c(=O)n(CC(=O)Nc3ccc(OCC)cc3)ccc12 (stereo not given),i,5,1,-7,-6,-12,11,14,
COc1ccc2[nH]c3c(c2c1)CCN1C(=O)C(CC(=O)NCCc2ccccn2)C[C@H](C(=O)N2CCOCC2)[C@@]31CCC1CCCC1 (stereo not given in full),x,x,x,4,-4,1,-58,x,
COc1ccc(NC(=O)CCC(=O)NCCO)cc1,i,2,-9,x,7,3,0,0,
CN(C)CCCN(C(=O)c1ccc(S(=O)(=O)N2CCCC2)cc1)c1nc2ccc(Br)cc2s1,i,4,5,16,1,1,4,2,
CCC(=O)Nc1cccc(C2=NOC3(C2)C[C@H](C(N)=O)N(C(=O)c2ccc(Cl)cc2)C3)c1 (stereo not given in full),i,2,x,2,3,3,20,1,
CCOc1ccccc1NC(=O)N1CCc2ccccc2C1,i,-2,-3,-8,-2,1,-2,7,
CC(=O)Nc1cccc(NC(=O)c2ccc(C)c([N+](=O)[O-])c2)c1,i,3,-4,x,0,2,-6,7,

# Bioassay records (PubChem)
